Source: PubChem BioAssay (National Center for Advancing Translational Sciences (NCATS))
Cruzain noTriton: inhibitors of Trypanosoma cruzi cruzain without detergent; P25779; purified cruzain, Z-FR-AMC fluorescence, no detergent; 200,000 compounds, 2.3% hits; Potency, µM, inactives show max response, negative = inhibition, usual class: inhibitors;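 further: plate controls were enzyme without inhibitor for no effect and buffer without enzyme for full effect; nearly all actives have a fitted effect of over 40% in size; top concentration of the series not given in the record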
Target sequence (P25779 123-467 limits assumed): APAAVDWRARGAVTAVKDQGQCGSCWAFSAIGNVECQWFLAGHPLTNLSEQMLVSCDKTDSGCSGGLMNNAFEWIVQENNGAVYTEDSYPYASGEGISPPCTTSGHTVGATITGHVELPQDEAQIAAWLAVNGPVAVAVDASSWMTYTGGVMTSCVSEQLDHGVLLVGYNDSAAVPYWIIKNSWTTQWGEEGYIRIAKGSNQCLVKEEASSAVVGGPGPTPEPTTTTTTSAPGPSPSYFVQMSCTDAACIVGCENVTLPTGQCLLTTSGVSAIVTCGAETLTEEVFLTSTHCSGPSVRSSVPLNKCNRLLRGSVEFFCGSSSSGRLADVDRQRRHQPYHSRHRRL
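Purified cruzain at 1.5 nM, pre-incubated 15 min with compound at room temperature in 100 mM sodium acetate pH 5.5, 5 mM DTT, 0.00005% Triton X-100. Reaction started with 2 uM Z-FR-AMC; AMC fluorescence increase over 60 s gives rate.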
MARV entry inh: blocks Marburg virus binding to or entry into cells; Potency, µM (highest dose often 37.8 µM), inactives show top-dose activity change, negative = inhibition, most hits filed as inhibitors; AID 540276; Marburg virus pseudotyped entry inhibition, cell reporter; control for the full effect not named in the record; about a third of the inactives were read at about 46 µM; 300,000 compounds, 1.8% hits; active = well fitted inhibition curve with a large enough effect; inconclusive = small, poorly fitted or top-dose-only effect, or effect the other way; inactive = flat fitted curve, though single readings scatter; tested in HEK293 cells; about a fifth of its hits are not listed in these tables; further: on the % scale 0 is the no-effect control and ±100 the full control effect; luciferase read-out
Cruzain Triton: cruzain (T. cruzi) inhibition with detergent; P25779; purified cruzain, Z-FR-AMC fluorescence, 0.01% Triton; Potency, µM, for the others: max response, negative = inhibition, usual class: inhibitors; 200,000 compounds, 0.43% hits;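 further: plate controls were neutral wells for no effect and buffer without enzyme for full effect; nearly all actives have a fitted effect of over 40% in size; top concentration of the series not given in the record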
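Read-out: AMC fluorescence (360 nm excitation, 450 nm emission), four reads over 2 min, first-to-third difference used. Conditions: cruzain 1.5 nM, Z-FR-AMC 2 uM, pH 5.5 acetate, 5 mM DTT, 0.01% Triton X-100.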
RE007 growth inh: less growth of the S. pombe RE007 Vpr strain | S. pombe RE007 Vpr strain, BacTiter-Glo ATP luminescence, 24 h; control for the full effect not named in the record | Potency, µM (series often up to 92.2 µM), without a hit: top-dose activity change, negative = less growth | 360,000 compounds, 0.21% hits | AID 651644; active = well fitted falling curve with a large enough effect; inconclusive = small, poorly fitted or top-dose-only effect; inactive = no such curve, though single readings can be large or run the other way;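 further: on the % scale 0 is the no-effect control and ±100 the full control effect; nearly all actives have a fitted effect of over 50% in size; the assay follows cell death caused by Vpr and the record does not say whether a fall means rescue or toxicity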
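Fission yeast strain RE007, carrying one chromosomally integrated HIV-1 vpr copy, was seeded at OD 0.01 in PMG+AL medium with 23 nL pinned compound. After 24 h at 30 °C and 99% humidity, viability was read by BacTiter-Glo luminescence.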
SARS PLP yeast: inhibitors of SARS-CoV papain-like protease in yeast. S. cerevisiae expressing SARS-CoV PLpro, growth rescue; control for the full effect not named in the record. Potency, µM (series often up to 32.9 µM), without a hit: at the top dose activity, positive = growth rescue. 330,000 compounds, 0.19% hits; active means well fitted rising curve with a large enough effect; inconclusive means small, poorly fitted or top-dose-only effect; inactive means no such curve, though single readings can be large or run the other way; further: 0% is about no effect; nearly all actives have a fitted effect of over 55% in size; growth read by luminescence after 48 h
StopGo reporter: FMDV 2A StopGo reporter, luciferase signal; Potency, µM (doses to about 57.9 µM), for the others: top-dose signal change, negative = less light; human cells with a luciferase reporter of 2A StopGo recoding; control for the full effect not named in the record; 410,000 compounds, 1.2% hits; active = well fitted falling curve with a large enough effect; inconclusive = small, poorly fitted or top-dose-only effect; inactive = no such curve, though single readings can be large or run the other way; tested in HEK293T cells; further: on the % scale 0 is the no-effect control and ±100 the full control effect; nearly all actives have a fitted effect of over 45% in size; luciferase light after 4 h
LASV entry inh: inhibitors of Lassa virus binding or cell entry; Lassa virus pseudotype entry inhibition, cell reporter; control for the full effect not named in the record; Potency, µM (doses to about 37.9 µM), inactives show at the top dose activity change, negative = inhibition, actives largely listed as inhibitors; 300,000 compounds, 1.2% hits; active means well fitted inhibition curve with a large enough effect; inconclusive means small, poorly fitted or top-dose-only effect, or effect the other way; inactive means flat fitted curve, though single readings scatter; tested in HEK293 cells; further: on the % scale 0 is the no-effect control and ±100 the full control effect; nearly all actives have a fitted effect of over 50% in size; luciferase read-out
NS1 inh: inhibitors of influenza NS1 protein function | S. cerevisiae slowed by influenza A NS1, growth recovery by OD600 | Potency, µM (doses to about 46.1 µM), inactives show at the top dose activity, positive = more growth | 270,000 compounds, 0.4% hits; active means well fitted rising curve with a large enough effect; inconclusive means small, poorly fitted or top-dose-only effect; inactive means no such curve, though single readings can be large or run the other way; further: nearly all actives have a fitted effect of over 50% in size
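S. cerevisiae expressing influenza A NS1, grown in glucose, washed, then diluted 1:100 into pH 6.0 -URA galactose medium with 23 nl compound. Growth recovery read as OD600; NS1-free strain serves as control.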
* hit, by the source's call; u = inconclusive; x = no result given; & = joins results of further samples; [ ] = remark or other dose. Unless noted, the call rests on the fitted dose curve; in most records, active means well fitted curve in the direction sought with a large enough effect; inconclusive means small, poorly fitted or top-dose-only effect, or another doubt; inactive means no such curve, though single readings can be large; an effect the other way counts as inactive or inconclusive. Potency means the concentration at half of the fitted maximal effect.

Compound	StopGo reporter	LASV entry inh	RE007 growth inh	NS1 inh	Cruzain noTriton	SARS PLP yeast	MARV entry inh	Cruzain Triton
CC(C)CNC(=O)CSc1nc2scc(-c3ccccc3)c2c(=O)[nH]1	-26%	-5%	10%	12%	-6%	-19%	-20%	-5.4%
Cc1csc(C(=O)O)c1NC(=O)c1cccc([N+](=O)[O-])c1	-4%	4%	3%	4%	x	1%	4%[46.1 µM]	x
CN(C)S(=O)(=O)N1CCC(C(=O)O)(c2ccccc2)CC1	-17%	28%	2%	2%	4%	15%	13%	8.0%
CCOc1ccc(C(=O)C(C)OC(=O)CN2C(=O)NC(C)(C)C2=O)cc1 (stereo not given)	0%	6%	22%	x	x	0%	11%	x
CCc1ccc(N(C(=O)c2csnn2)C(C(=O)NC(C)(C)C)c2cccnc2)cc1 (stereo not given)	-15%	-29%[46.1 µM]	-9%	-3%	x	0%	u	x
CCCCC1CCC(c2nc(-c3ccccn3)no2)CC1 (stereo not given)	-19%	-30%	u	-21%	4%	1%	u	-9.3%
O=C(NNC(=O)c1ccccc1C(F)(F)F)c1csc(N2CCOCC2)n1	0%	-5%	13%	-4%	x	-3%	0%	x
CC1(C)CC(=O)CC2(C1)NCC(c1ccccc1Cl)c1c2[nH]c2ccccc12 (stereo not given)	-8%	-6%	-11%	x	x	1%	-19%[46.1 µM]	x
COc1ccc(CNC(=O)CSc2nc3ccccc3nc2Cc2ccccc2)cc1	-7%	0%[46.1 µM]	x	x	-14%	x	x	1.6%
COC(=O)C1=C(C)N(CCc2ccccc2)C(=O)/C1=C\c1ccco1	-16%	u	-14%	18%	-23%	-30%	-23%	-4.7%
O=C(CCc1ccccc1)N1CCN(S(=O)(=O)c2cccs2)CC1	-18%	-4%	-24%	3%	x	-1%	-8%	x
O=C(NCCCN1CCN(C2CCCCC2)CC1)Nc1ccccc1C(F)(F)F	-31%	0%	12%	4%	-1%	12%	-3%[46.1 µM]	5.4%
CC(C)N(C(=O)[C@H]1C[C@H](CC(=O)NC(C)(C)C)C(=O)N2CCc3c([nH]c4ccc(Cl)cc34)[C@]12C)C(C)C	-4%	x	49%	x	x	-42%	0%	x
O=S(=O)(c1cccc(-c2nnc(SCc3ccc(Cl)cc3)o2)c1)N1CCCCC1	0%	-21%	-6%	-15%	-23%	-1%	u	-1.4%
Nc1c(C(=O)c2ccc(Cl)cc2)oc2ccccc12	43%[activator]	u	3%	10%	u	-6%	-9%	-4.7%
CCS(=O)(=O)N1CCN(C(=O)c2cccs2)CC1	-17%	2%	-13%	u	-6%	5%	28%	0.7%
CCOc1ccccc1NC(=S)N(Cc1cc2ccc(C)cc2[nH]c1=O)CC1CCCN1CC (stereo not given)	-6%	-14%	-13%	8%	2%	-9%	u	-2.8%
CC1CCCN(C(=O)c2cccc(S(=O)(=O)Nc3cc(C(F)(F)F)ccc3Cl)c2)C1 (stereo not given)	0%	-3%	x	-19%	u	-6%	-21%	-9.8%
N#Cc1cccc(NC(=O)C2CCN(S(=O)(=O)c3ccc4[nH]c(=O)ccc4c3)CC2)c1	-23%	u	x	x	-4%	x	x	-2.4%
COc1cccc(-c2csc(NC(C)=O)n2)c1	19%	u	-17%	-9%	9%	-4%	-20%	-8.0%
CCC(C)[C@H](NC(=O)C1CC(=O)N(c2ccc(OC)cc2)C1)C(=O)NC1CCCC1 (stereo not given in full)	-6%	x	-17%	1%	x	-3%	x	x
COc1cccc(NC(=O)C2CCN(c3nc4ccccc4nc3C(F)(F)F)CC2)c1	0%	u	x	x	-11%	x	x	-5.6%
Cc1cnc(NC(=O)c2ccc(F)c(S(=O)(=O)N3CCOCC3)c2)s1	-10%	15%	0%	x	x	2%	-4%	x
COc1ccc2nc(NC(=O)C(NS(=O)(=O)c3cccs3)C(C)C)sc2c1 (stereo not given)	-13%	1%	-10%	6%	-23%	5%	-5%	5.5%
COc1ccccc1/C=C/CN1CCC(Oc2ccc(C(=O)N3CCCC3)cc2)CC1	-2%	8%	-10%	-10%	x	-1%	-27%	x
Cc1cccc(OCC(=O)N/N=C/c2ccccc2C(=O)O)c1	-5%	1%	14%	x	x	-2%	16%[46.1 µM]	x
CC(=O)Nc1ccc(C2=NN(c3ccccc3)C(c3ccccc3)C2)cc1 (stereo not given)	6%	-14%[46.1 µM]	11%	3%	x	-5%	-22%[46.1 µM]	x
CCOC(=O)N1CCN(CCC(=O)Nc2cc([N+](=O)[O-])ccc2OC)CC1	u	8%	-6%	-12%	-7%	-15%	11%	-1.4%
CSC1=C(C#N)C(=O)NC(c2ccc(Cl)cc2)S1 (stereo not given)	20µM*	-2%	8%	5%	x	0%	-12%&-12%[46.1 µM]	x
CCCCC(=O)NC(c1ccc(Cl)cc1)c1ccc2cccnc2c1O (stereo not given)	-3%	u	-28%	x	x	x	4µM*	x
Cc1cc2cc(CNS(=O)(=O)c3ccc4ccccc4c3)ccc2n1C	-11%	x	-3%	10µM*	25µM*	-4%	x	-2.7%
CC(C)CN(c1ccccc1)S(=O)(=O)c1nnc(NC(=O)C2CCCCC2)s1	7%	13%[46.1 µM]	x	x	-19%	x	x	-0.6%

Reformatted: ten of the compounds above.
Every second line gives: StopGo reporter, LASV entry inh, RE007 growth inh, NS1 inh, Cruzain noTriton, SARS PLP yeast, MARV entry inh, Cruzain Triton
Cc1cnc(NC(=O)c2ccc(F)c(S(=O)(=O)N3CCOCC3)c2)s1
 : -10%, 15%, 0%, x, x, 2%, -4%, x
COc1ccc2nc(NC(=O)C(NS(=O)(=O)c3cccs3)C(C)C)sc2c1 (stereo not given)
 : -13%, 1%, -10%, 6%, -23%, 5%, -5%, 5.5%
COc1ccccc1/C=C/CN1CCC(Oc2ccc(C(=O)N3CCCC3)cc2)CC1
 : -2%, 8%, -10%, -10%, x, -1%, -27%, x
Cc1cccc(OCC(=O)N/N=C/c2ccccc2C(=O)O)c1
 : -5%, 1%, 14%, x, x, -2%, 16%[46.1 µM], x
CC(=O)Nc1ccc(C2=NN(c3ccccc3)C(c3ccccc3)C2)cc1 (stereo not given)
 : 6%, -14%[46.1 µM], 11%, 3%, x, -5%, -22%[46.1 µM], x
CCOC(=O)N1CCN(CCC(=O)Nc2cc([N+](=O)[O-])ccc2OC)CC1
 : u, 8%, -6%, -12%, -7%, -15%, 11%, -1.4%
CSC1=C(C#N)C(=O)NC(c2ccc(Cl)cc2)S1 (stereo not given)
 : 20µM*, -2%, 8%, 5%, x, 0%, -12%&-12%[46.1 µM], x
CCCCC(=O)NC(c1ccc(Cl)cc1)c1ccc2cccnc2c1O (stereo not given)
 : -3%, u, -28%, x, x, x, 4µM*, x
Cc1cc2cc(CNS(=O)(=O)c3ccc4ccccc4c3)ccc2n1C
 : -11%, x, -3%, 10µM*, 25µM*, -4%, x, -2.7%
CC(C)CN(c1ccccc1)S(=O)(=O)c1nnc(NC(=O)C2CCCCC2)s1
 : 7%, 13%[46.1 µM], x, x, -19%, x, x, -0.6%

Next results
Compound	StopGo reporter	LASV entry inh	RE007 growth inh	NS1 inh	Cruzain noTriton	SARS PLP yeast	MARV entry inh	Cruzain Triton
CCOc1ccc([N+](=O)[O-])c(N)c1	-5%	-19%	-12%	-13%	-6%	-17%	5%	-5.3%
O=C(CCS(=O)(=O)c1ccccc1)NCc1ccccc1	-2%	x	-1%	7%	x	0%	x	x
CSc1nnc(-c2cc3ccccc3cc2O)n1C	13%	-3%	20%	-12%	-3%	u	13%	0.5%
Nn1c(CSc2nc3ccccc3o2)nnc1CSc1nc2ccccc2o1	-9%	u	-7%	-40%	18%	-2%	7%	-1.4%
O=C(Nc1ccnn1C1CCN(Cc2c[nH]c3ccccc23)CC1)c1ccccc1	8%	x	-8%	4%	x	u	x	x
Cc1ccc(CSc2ncc(Cl)c(C(=O)NCc3ccccc3)n2)cc1	-23%	3%[46.1 µM]	x	x	-4%	x	9%[46.1 µM]	1.5%
CN1CCN(Cc2c(O)ccc3cc(-c4ccccn4)c(=O)oc23)CC1	15%	u	10%	0%	x	1%	u	x
CC(=O)N1c2ccccc2C(=O)C1N(C)c1ccc(C)cc1 (stereo not given)	-20%	21%[46.1 µM]	4%	-7%	x	-3%	u	x
CCN1C(=O)c2ccccc2S(=O)c2ccc(C(=O)NCCN(CC(C)C)CC(C)C)cc21 (stereo not given)	-18%	u	7%	-4%	x	1%	u	x
Cc1ccc(N(CC#N)C(=O)CS(=O)(=O)c2cccc([N+](=O)[O-])c2)cc1	0%	u	5%	-7%	x	-3%	1%[46.1 µM]	x
O=C(CSc1ncc2c(n1)-c1cc(Cl)ccc1N(Cc1ccccc1F)S2(=O)=O)Nc1cccc(C(F)(F)F)c1	-12%	-13%[46.1 µM]	x	x	16µM*	x	x	-1.0%
CC(=O)N1c2ccccc2C(=O)C1N1CCN(c2ccccc2)CC1 (stereo not given)	-17%	-14%[46.1 µM]	x	x	-14%	x	x	-2.4%
CCCC(=O)Nc1nc2ccc(NC(=O)c3ccccc3F)cc2s1	-16%	u	10%	-8%	x	-1%	-2%	x
Cc1cc(C)n(C(=O)Cc2cn3ccsc3n2)n1	-1%	4%	-1%	-1%	2%	-2%	1%	-1.2%
CC1CC(=O)C2=C(C1)Nc1nc3ccccc3n1C2c1cccnc1 (stereo not given)	-22%	u	-8%	0%	x	1%	u	x
CC(=O)c1cccc(NC(=O)C(C)n2c(=O)cc(C)c3c(C)nn(-c4ccccc4)c32)c1 (stereo not given)	-11%	11%[46.1 µM]	x	x	21%	x	x	-3.5%
